H5N1 antiviral: MDCK cell protection from H5N1 avian flu | cytopathic effect, luminescence, 72 h; active compounds read high; no value below 0 was filed and about half of the inactive calls have no number; reference of the scale not given here | inhibition, % at 50 µM | hit rate 0.07% among 96,000 | AID 740, 2007; in the data active means inhibition above about 25%
An asterisk follows results filed as active. The list is partial; the hit share may differ from the screen's.

Screening Cc1ccc(-n2c(C)cc(C=C(C#N)C#N)c2C)cc1 returned H5N1 antiviral inactive.
CN(C)/C(CN1CCCCC1)=C1\N=C(c2ccccc2)OC1=O was read as H5N1 antiviral 0.8.
COc1ccc(C(CC(=O)O)NC(=O)c2ccco2)cc1 (configuration not stated) was read as H5N1 antiviral inactive.
COc1ccc2c(c1)CCc1c(C(=O)NCCc3ccc(OC)c(OC)c3)noc1-2 was read as H5N1 antiviral 0.4.
For COC(=O)c1c(C(=O)OC)c(-c2ccc(C)cc2)n2c1CCC2 the results were H5N1 antiviral 0.1.
Screening COc1ccc(Cn2nnnc2C(c2cccs2)N2CCOCC2)cc1 (configuration not stated) returned H5N1 antiviral 0.5.
Screening O=C(NCC1CCCO1)C1CCC(=O)N1Cc1ccc(F)cc1 (configuration not stated) returned H5N1 antiviral inactive.
C=CC[N+](C)(C)C/C(Cl)=C(\Cl)c1ccccc1 was read as H5N1 antiviral inactive.
`COc1cc(CC(=O)NCCc2ccc(S(N)(=O)=O)cc2)cc(OC)c1OC` gave H5N1 antiviral inactive.
`CCOC(=O)Cn1nnc(-c2ccc(OCC(C)C)cc2)n1` gave H5N1 antiviral 1.7.
`O=C(CN1C(=O)CC(c2ccccc2)=Nc2ccccc21)NC1CCCCC1` gave H5N1 antiviral 6.4.
C=CCn1c(SCC(=O)O)nnc1-c1ccc(C(C)(C)C)cc1 was read as H5N1 antiviral 0.4.
C=CCn1c(NCCO)nc2sc3c(c2c1=O)CCC3 was read as H5N1 antiviral 2.2.
`COc1ccc(C2=Nn3c(nnc3-c3cccnc3)SC2)cc1` gave H5N1 antiviral 1.1.
For C=CCn1c(NC(=O)c2ccc(C)cc2)c(C#N)sc1=N the results were H5N1 antiviral 3.1.
`CSc1nsc(SC)c1NC(=O)OCc1ccccc1` gave H5N1 antiviral 1.7.
O=C1C(=C(c2ccccc2)c2ccccc2)Nc2ccccc21 was read as H5N1 antiviral 1.0.
Screening O=C(NCc1ccc(Cl)cc1)c1ccc(Br)o1 returned H5N1 antiviral inactive.
Screening CC(C)(C)C(=O)N(CCN(C(=O)C(C)(C)C)c1ccccc1)c1ccccc1 returned H5N1 antiviral 0.1.
Nc1nnc(-c2cc3ccccc3oc2=O)s1 was read as H5N1 antiviral inactive.
`COc1ccc(C2C(C(=O)c3cccs3)=C(O)C(=O)N2c2nncs2)cc1` (configuration not stated) gave H5N1 antiviral 0.7.
For CC1(C)C(c2cccs2)=[N+]([O-])C2(CCCCC/C2=N\NC(N)=S)N1O (configuration not stated) the results were H5N1 antiviral inactive.
Cc1cccc(Cc2nnc(NC(=O)c3cccc(S(=O)(=O)N4CCOCC4)c3)s2)c1 was read as H5N1 antiviral inactive.
`c1ccc(CSc2nnc(-c3ccncc3)o2)cc1` gave H5N1 antiviral 2.7.
`CSC1=C(C#N)C(c2cccc(Br)c2)CC(=O)N1` (configuration not stated) gave H5N1 antiviral 0.8.
C/C(O)=c1/ccc2cccc3nc(C)nc1c23 was read as H5N1 antiviral inactive.
For CCOC(=O)C1=C(c2ccccc2)OC(N)=C(C#N)C1C(C)C (configuration not stated) the results were H5N1 antiviral inactive.
Screening COc1ccc(CCN2C(=O)C3C4C=CC(C3C2=O)C2C(=O)N(CCc3ccc(OC)c(OC)c3)C(=O)C42)cc1OC (configuration not stated) returned H5N1 antiviral 0.3.
Cc1cc(C)c(OCCCCCNCCO)c(C)c1 was read as H5N1 antiviral inactive.
O=C(Nc1nncs1)c1ccc(N2C(=O)C3C4C=CC(C4)C3C2=O)cc1 (configuration not stated) was read as H5N1 antiviral inactive.
CCCS(=O)(=O)c1c(S(=O)(=O)CCC)c2c3ccccc3ccn2c1C(N)=O was read as H5N1 antiviral inactive.
COCCCNC(=O)c1ccc(Cn2c(=O)c3ccccc3n(Cc3ccc(C)cc3)c2=O)cc1 was read as H5N1 antiviral inactive.
Screening Fc1ccc(C[n+]2csc3ccccc32)cc1 returned H5N1 antiviral 1.1.
N#C/C(=C(/O)CN1CCOCC1)c1nc2ccccc2s1 was read as H5N1 antiviral 0.1.
Screening COc1ccc(NC(=O)C2CCCN2c2ccc(OC)c(OC)c2)cc1OC (configuration not stated) returned H5N1 antiviral 0.5.
Cc1c(C(=O)CN2CCOCC2)[nH]c2ccccc12 was read as H5N1 antiviral inactive.
`COc1ccccc1NC(=O)c1ccc(CN(c2cc(Cl)ccc2C)S(=O)(=O)c2ccccc2)cc1` gave H5N1 antiviral 0.6.
For CN(C)S(=O)(=O)c1ccc(C(=O)N2CCOCC2)cc1 the results were H5N1 antiviral 0.3.
O=C(CSc1nc(N2CCCCC2)nc(N2CCCCC2)n1)c1ccccc1 was read as H5N1 antiviral inactive.
`Cc1ccc(NC(=O)c2cc(S(=O)(=O)N3CCCCC3)cs2)cc1` gave H5N1 antiviral inactive.
CC(C)OC(=O)CN1C(=O)C(C)(C)Oc2ccc(C(=O)NC3CC3)cc21 was read as H5N1 antiviral inactive.
`COCC(=O)N(Cc1ccc(OC)cc1)Cc1nc2ccccc2c(=O)[nH]1` gave H5N1 antiviral 1.4.
For O=C(CSc1nc(O)c(Cc2ccccc2F)c(=O)[nH]1)N1CCCCCC1 the results were H5N1 antiviral inactive.
`CCOc1cc2[nH]c(=S)n(CCc3ccc(OC)c(OC)c3)c(=O)c2cc1OCC` gave H5N1 antiviral 1.7.
Screening CCOC(=O)CSc1nnc(Cn2nnc(-c3ccccc3)n2)n1C returned H5N1 antiviral inactive.
For COc1cc2cc(CN(CCO)S(=O)(=O)c3ccccc3Cl)c(=O)[nH]c2cc1OC the results were H5N1 antiviral 0.3.
CCOC(=O)C1CCCCN1Cc1cc(OC)ccc1OC (configuration not stated) was read as H5N1 antiviral inactive.
Screening CC(C)(C)c1ccc(COn2c(=O)c(-c3ccco3)[n+]([O-])c3ccccc32)cc1 returned H5N1 antiviral inactive.
Screening Oc1ccc(CN2CCCCC2)nc1-c1ccccc1 returned H5N1 antiviral inactive.
Screening Cc1nnc(SCc2ccc(Cl)cc2)n1CC1CCCO1 (configuration not stated) returned H5N1 antiviral 0.7.

Molecules shown so far containing a tert-butyl group:
C=CCn1c(SCC(=O)O)nnc1-c1ccc(C(C)(C)C)cc1 was read as H5N1 antiviral 0.4.
Screening CC(C)(C)C(=O)N(CCN(C(=O)C(C)(C)C)c1ccccc1)c1ccccc1 returned H5N1 antiviral 0.1.
Screening CC(C)(C)c1ccc(COn2c(=O)c(-c3ccco3)[n+]([O-])c3ccccc32)cc1 returned H5N1 antiviral inactive.

(continued)
COc1cc2c(cc1NCc1ccccn1)oc1ccccc12 was read as H5N1 antiviral 2.1.
Screening CN(C)CCCNC(=O)CC(c1ccccc1)c1ccccc1O (configuration not stated) returned H5N1 antiviral 1.0.
`CCOC(=O)Nc1nnc(-c2ccc(OC)cc2)s1` gave H5N1 antiviral inactive.
For CCC1=C(C(=O)OC)C(c2cc(OC)ccc2OC)C(C#N)=C(N)O1 (configuration not stated) the results were H5N1 antiviral inactive.
For Cc1nn(-c2ccccn2)c2c1-c1nc(N)ncc1CC2 the results were H5N1 antiviral 3.0.
O=C(Nc1cn(-c2ccccc2)nc1-c1cccs1)c1ccco1 was read as H5N1 antiviral inactive.
For CSc1nc2c(cnn2-c2ccc(C)c(C)c2)c(=O)[nH]1 the results were H5N1 antiviral 1.6.
`c1ccc2c(c1)[nH]c1c(NCC3CCCO3)ncnc12` (configuration not stated) gave H5N1 antiviral 4.1.
Screening COC(=O)NCc1ccc(Cl)c(Cl)c1 returned H5N1 antiviral inactive.
For O=C(COc1ccccc1F)NC1CCN(Cc2ccccc2)CC1 the results were H5N1 antiviral inactive.

Gathered by group, the compounds so far containing a thiophene ring, fused or not (6)
Screening COc1ccc(Cn2nnnc2C(c2cccs2)N2CCOCC2)cc1 (configuration not stated) returned H5N1 antiviral 0.5.
C=CCn1c(NCCO)nc2sc3c(c2c1=O)CCC3 was read as H5N1 antiviral 2.2.
`COc1ccc(C2C(C(=O)c3cccs3)=C(O)C(=O)N2c2nncs2)cc1` (configuration not stated) gave H5N1 antiviral 0.7.
For CC1(C)C(c2cccs2)=[N+]([O-])C2(CCCCC/C2=N\NC(N)=S)N1O (configuration not stated) the results were H5N1 antiviral inactive.
`Cc1ccc(NC(=O)c2cc(S(=O)(=O)N3CCCCC3)cs2)cc1` gave H5N1 antiviral inactive.
O=C(Nc1cn(-c2ccccc2)nc1-c1cccs1)c1ccco1 was read as H5N1 antiviral inactive.

Continued.
`COc1ccc(NC(=O)c2ccccc2NS(C)(=O)=O)cc1OC` gave H5N1 antiviral 0.5.
Screening CN(C)C1(CNC(=O)c2ccc(Cl)c(S(=O)(=O)NCc3ccco3)c2)CCCCC1 returned H5N1 antiviral inactive.
Screening CCC1c2ccc(C)n2CCN1C(=O)Nc1ccc(F)cc1 (configuration not stated) returned H5N1 antiviral 0.0.
For O=C(NO)c1ccc(OC(F)F)cc1 the results were H5N1 antiviral inactive.
`COc1cc(OC)c(C2N(c3cc(C)on3)C(=O)C3CCCN32)cc1OC` (configuration not stated) gave H5N1 antiviral inactive.
Screening Cc1ccc(NC(=O)c2ccc(-n3cncn3)c([N+](=O)[O-])c2)cc1 returned H5N1 antiviral inactive.
Screening CCCCNC(=O)c1cc2c(-c3ccc(Cl)cc3)nn(C)c2s1 returned H5N1 antiviral inactive.
Screening Cc1ccc(OCC(=O)OC2CCS(=O)(=O)C2)cc1 (configuration not stated) returned H5N1 antiviral inactive.
`CCN(CC)S(=O)(=O)c1ccc2c(c1)c(C(=O)O)cn2C` gave H5N1 antiviral 0.1.
Screening N#CCCn1nnc(-c2ccccc2F)n1 returned H5N1 antiviral 0.4.

The final 2 records of the section above open the next one.
`CCN(CC)S(=O)(=O)c1ccc2c(c1)c(C(=O)O)cn2C` gave H5N1 antiviral 0.1.
Screening N#CCCn1nnc(-c2ccccc2F)n1 returned H5N1 antiviral 0.4.
`C=CCOc1ccc(/C(O)=C2\C(=O)C(=O)N(CCCOC)C2c2ccc(O)c(OC)c2)cc1` (configuration not stated) gave H5N1 antiviral inactive.
For CC(Sc1nc(-c2ccccc2)cc(C(F)(F)F)n1)C(=O)N1CCC(C(N)=O)CC1 (configuration not stated) the results were H5N1 antiviral 0.8.
For Cc1c(C(=O)NCC2CCCO2)oc2ccc(S(=O)(=O)N3CC(C)CC(C)C3)cc12 (configuration not stated) the results were H5N1 antiviral inactive.
O=C(Cn1ncc2c1-c1ccccc1OC2)N1CCc2ccccc21 was read as H5N1 antiviral inactive.
`Cc1nc2cc(C(=O)N3CCC4(CC3)OCCO4)ccc2n1-c1ccc(Br)cc1` gave H5N1 antiviral 0.8.
Screening CCOC(=O)CC(=O)CSC1=C(C#N)C(c2ccccc2OC)CC(=O)N1 (configuration not stated) returned H5N1 antiviral 0.9.
COc1ccc(OCCSc2n[nH]c(N)n2)cc1 was read as H5N1 antiviral inactive.
Screening NS(=O)(=O)c1cccnc1Nc1cccc(C(F)(F)F)c1 returned H5N1 antiviral inactive.
For CCCS(=O)(=O)N1CCCC(C(=O)NCCN2CCCCC2C)C1 (configuration not stated) the results were H5N1 antiviral inactive.
CCOC(=O)N1CCN(C(=O)c2nn(-c3ccc(C)cc3)c(=O)c3c2c2ccccc2n3C)CC1 was read as H5N1 antiviral 1.2.

Retrieved one by one from above (three):
`C=CCOc1ccc(/C(O)=C2\C(=O)C(=O)N(CCCOC)C2c2ccc(O)c(OC)c2)cc1` (configuration not stated) gave H5N1 antiviral inactive.
Screening CCOC(=O)CC(=O)CSC1=C(C#N)C(c2ccccc2OC)CC(=O)N1 (configuration not stated) returned H5N1 antiviral 0.9.
COc1ccc(OCCSc2n[nH]c(N)n2)cc1 was read as H5N1 antiviral inactive.

Remaining list, next part
CCCCC(=O)Nc1ccc(C(=O)NCc2ccncc2)cc1 was read as H5N1 antiviral 1.9.
Screening CCC(=O)Nc1nc(C)cc(SCC(=O)OC)n1 returned H5N1 antiviral inactive.
Cc1ccc(Cn2ccc(NC(=O)c3noc4c3CCCCC4)n2)cc1 was read as H5N1 antiviral 0.1.
`CCOC(=O)c1sc(NC(=O)c2cc(-c3ccccc3)nc3ccccc23)c(C#N)c1C` gave H5N1 antiviral 3.2.
For COC(=O)c1c(C)oc2ccc(N(C(=O)c3ccncc3)S(=O)(=O)c3ccc(C)cc3)cc12 the results were H5N1 antiviral 0.2.
O=C(NC(=S)N1CCCCC1)C12CC3CC(CC(C3)C1)C2 was read as H5N1 antiviral 2.2.
Screening CC(C)Oc1ccc(C(=O)NCc2cccnc2)cc1 returned H5N1 antiviral 0.4.
`Cc1cccc(C)c1NC(=O)CS(=O)CC(=O)NC1CCCc2ccccc21` (configuration not stated) gave H5N1 antiviral 0.1.
Screening COc1ccc(CCNC(=O)CCn2c(=O)oc3ccccc32)cc1OC returned H5N1 antiviral inactive.
Cc1ccc(Cl)cc1NC1=C/C(=N\S(=O)(=O)c2cccs2)c2ccccc2C1=O was read as H5N1 antiviral inactive.
O=S(Cc1ccccc1)CC(O)(c1ccccc1)c1ccccc1 (configuration not stated) was read as H5N1 antiviral 2.1.
`CCCCNC(=O)c1onc(CSc2cccc(Cl)c2)c1C(=O)O` gave H5N1 antiviral 0.1.
`O=C(Nc1ccc2c(c1)OCO2)c1c(Cl)nc2sccn12` gave H5N1 antiviral 0.8.
Screening CCCOc1ccc(-c2nc(C#N)c(NCCCn3ccnc3)o2)cc1 returned H5N1 antiviral inactive.
For C(=N\n1cnnc1)/c1ccc2ncccc2c1 the results were H5N1 antiviral inactive.
Screening CC(=O)NC(CCS(C)(=O)=O)C(=O)Nc1cccc(C)c1C (configuration not stated) returned H5N1 antiviral inactive.
Screening CCC(=O)Nc1nc2cc(OC)ccc2s1 returned H5N1 antiviral inactive.
Screening CC(C)(Oc1ccc(Cl)cc1)C(=O)Nc1ncccn1 returned H5N1 antiviral inactive.
For CC12CN3C(O)C(C)(C1)CC(C)(C2)C3O (configuration not stated) the results were H5N1 antiviral inactive.
For Cn1c(C(=O)N2CCCC(C(=O)NCCCc3ccccc3)C2)cc2sccc21 (configuration not stated) the results were H5N1 antiviral inactive.
CC(=O)c1cccc(N=C2C(=O)Nc3ccccc32)c1 was read as H5N1 antiviral inactive.
`CCOc1ccccc1OCCOc1ccc(F)cc1` gave H5N1 antiviral 1.0.
Screening CCc1ccccc1NC(=O)CN1C(=O)C2CCCN2c2ncc(Cl)cc21 (configuration not stated) returned H5N1 antiviral inactive.
Cc1ccc(S(=O)(=O)N2CCN(c3cc4c(cc3[N+](=O)[O-])n(C)c(=O)n4C)CC2)cc1 was read as H5N1 antiviral 0.1.

Screening results (PubChem)
